High-throughput results deposited in PubChem BioAssay by Broad Institute.
rRNA inh HTS: inhibitors of bacterial rRNA selective over humanized ribosomes; E. coli WT GFP vs humanized-ribosome RFP mutants, fluorescence, 24 h; hits give low values; DMSO median 0, no signal -100; GFP signal change (wild-type ribosome), % (test concentration not listed); hit rate 1.6% among 350,000;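 active = significant combined selectivity score with lowered wild-type GFP, culture density cut under 30%, mutant RFP and density less affected; inactive = any of these conditions unmet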; note: one replicate is shown; some compounds called inactive have numbers as strong as hits
MLL AF4-AF9 inh: MLL-AF4/AF9 protein interaction inhibition. AlphaScreen, biotin-AF4 peptide binding to FLAG-AF9. inhibition, % at 10 µM. hit rate 0.47% among 350,000;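 active = every replicate reaching a set inhibition limit, whatever the replicate mean, cut at about 25% in these data; inconclusive = mean inhibition reaches that limit but some replicates miss it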;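 note: 0% = plate neutral control median and 100% = total signal loss; the record names both 10 and 1 µM as test concentration; the first replicate is given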
Target sequence (P42568 whole entry, looked up): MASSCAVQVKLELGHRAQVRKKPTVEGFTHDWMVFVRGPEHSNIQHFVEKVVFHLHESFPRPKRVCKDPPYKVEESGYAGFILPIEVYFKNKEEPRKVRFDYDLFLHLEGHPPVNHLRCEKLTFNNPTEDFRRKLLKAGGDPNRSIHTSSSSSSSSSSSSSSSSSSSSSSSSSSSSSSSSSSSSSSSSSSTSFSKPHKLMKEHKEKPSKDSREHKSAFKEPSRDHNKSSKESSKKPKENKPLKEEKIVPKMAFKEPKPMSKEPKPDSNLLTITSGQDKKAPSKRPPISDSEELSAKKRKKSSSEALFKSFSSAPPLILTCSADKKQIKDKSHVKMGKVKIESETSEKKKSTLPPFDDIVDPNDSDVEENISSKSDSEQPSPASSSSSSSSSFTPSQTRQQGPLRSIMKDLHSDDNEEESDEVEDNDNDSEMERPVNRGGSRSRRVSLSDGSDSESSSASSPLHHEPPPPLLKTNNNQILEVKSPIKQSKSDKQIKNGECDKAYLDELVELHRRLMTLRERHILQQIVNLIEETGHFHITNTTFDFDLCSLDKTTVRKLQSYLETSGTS
rRNA inh HTS OD600: recorded beside rRNA inh HTS, whose call it bears; OD600 change, %; measured here: OD600 growth;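 optical density of the mix in the first replicate; 0 = DMSO median and -100 = no signal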
rRNA inh HTS RFP: second read-out of rRNA inh HTS, no call of its own (marks repeat the call); RFP signal change, %; measured here: RFP humanized mutant strains;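 first replicate; 0 = DMSO median and -100 = no signal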
An asterisk follows results filed as active; ? = inconclusive; & = joins results of further samples.

SMILES	rRNA inh HTS	rRNA inh HTS OD600	rRNA inh HTS RFP	MLL AF4-AF9 inh
C[C@@H]1CCCCO[C@@H](CN(C)S(=O)(=O)c2ccc(Cl)cc2)[C@H](C)CN([C@@H](C)CO)C(=O)c2cc(NC(=O)Nc3ccccc3)ccc2O1	2.6	-2.4	1.9	1.7
C[C@@H]1CN([C@@H](C)CO)C(=O)c2cc(NS(=O)(=O)c3ccc(F)cc3)ccc2O[C@@H]1CN(C)CC1CCCCC1	1.4	-0.2	0.5	-3.2
COc1ccc2c3c(n(C)c2c1)[C@@H](CO)N(C(=O)c1ccc(F)cc1)CC31CCN(CC2CCOCC2)CC1	2.4	9.6	-3.1	2.4
Cc1ccccc1S(=O)(=O)N1CCCCN2[C@@H](CO)[C@@H](c3ccc(-c4cccc(F)c4)cc3)[C@@H]2C1	-54.5	-71.4	-10.2	7.0
CC(C)C#Cc1cnc2c(c1)C(=O)N([C@H](C)CO)C[C@@H](C)[C@@H](CN(C)C(=O)Nc1cccc(F)c1)O2	-4.8	-12.2	-0.7	0.5
Cc1ccccc1S(=O)(=O)N[C@@H]1CC[C@H](CCn2cc(-c3ccc(F)cc3)nn2)O[C@H]1CO	-2.3	-1.5	4.1	-4.0
C[C@@H]1CN([C@@H](C)CO)C(=O)c2cccc(NC(=O)C3CCOCC3)c2O[C@@H]1CN(C)S(=O)(=O)c1cccs1	-0.7	2.6	2.0	-5.7
C[C@H]1CN([C@@H](C)CO)C(=O)c2cccc(NC(=O)Nc3ccccc3)c2O[C@@H]1CN(C)Cc1ccc(Cl)c(Cl)c1	-3.7	-6.5	3.7	4.5
C#CCN(C[C@H]1[C@H](OC(=O)Nc2c(C)noc2C)[C@H](OC(=O)Nc2c(C)noc2C)CN(C(=O)OC(C)C)N1C(=O)OC(C)C)S(=O)(=O)c1ccc(C)cc1	24.4	8.7	-2.5	0.6
COc1c(C)cc(C(O)c2ncc(-c3ccc4ccccc4c3)[nH]2)cc1C (configuration not stated)	-5.1	-20.6	40.2	2.1
CC(C)NC(=O)N1[C@H](C(=O)N2CCOCC2)[C@@H](CO)[C@@H]2Cn3c(ccc(-c4ccc(F)cc4)c3=O)[C@@H]21	0.1	6.8	-2.6	1.5
C/C=C/c1ccc([C@@H]2[C@H](CO)N(C(=O)CC3CC3)C23CN(S(C)(=O)=O)C3)cc1	4.7	3.5	1.7	2.8
CNC(=O)C[C@H]1CC[C@H]2[C@H](COc3ccc(NC(=O)c4ccc(F)c(F)c4)cc3C(=O)N2C)O1	-1.1	-1.3	-3.4	0.3
C[C@H](CO)N1C[C@H](C)[C@@H](CN(C)C(=O)CN(C)C)Oc2ncc(C#CCC3CCCC3)cc2C1=O	7.7	8.2	-4.6	3.6
O=C(C[C@@H]1CC[C@@H](NC(=O)C2CCC2)[C@H](CO)O1)NCc1ccncc1	1.1	-2.6	0.3	0.7
C[C@H]1CN([C@@H](C)CO)C(=O)c2cccc(NC(=O)NC3CCCCC3)c2O[C@H]1CN(C)C(=O)Nc1ccc(F)cc1	1.7	-4.2	-0.4	1.1
N#C[C@H]1[C@H](c2ccc(-c3ccc(F)cc3)cc2)[C@@H](CO)N1c1nc(-c2ccccc2)cs1	0.5	8.9	-3.2	1.4
COc1ccc(CN(C)C[C@H]2Oc3ccc(NC(=O)Nc4cccc5ccccc45)cc3C(=O)N([C@H](C)CO)C[C@@H]2C)cc1	0.4	1.7	0.4	5.4
CO[C@@H]1CN(C)C(=O)c2ccc(NC(=O)Nc3ccccc3)cc2OC[C@@H](C)NC[C@@H]1C	3.8	5.6	1.8	-0.2
C[C@@H](NC(=O)C[C@@H]1C=C[C@H](NC(=O)C2CC2)[C@H](CO)O1)c1ccccc1	-0.5	2.1	0.8	0.2
O=C(N[C@@H]1CC[C@@H](CCNC(=O)C2CCCCC2)O[C@@H]1CO)c1ccncc1	0.8	1.7	-0.7	-1.0
COc1ccc(-c2cc(C(=O)N3CCCCCC3)c3ccccc3n2)cc1OC	-10.8	-14.1	3.3	0.6
C[C@@H]1CN([C@H](C)CO)C(=O)c2cccc(NC(=O)C3CCOCC3)c2O[C@@H]1CN(C)S(C)(=O)=O	4.8	7.5	-1.2	-2.1
COc1ccc2c3c(n(C)c2c1)[C@@H](CO)N(C(=O)C1CCOCC1)CC31CCN(C(=O)C2CCOCC2)CC1	4.0	-8.1	1.2	-18.4
Cc1ccccc1S(=O)(=O)NCC[C@@H]1CC[C@@H](NC(=O)Nc2cccc(F)c2)[C@H](CO)O1	-5.4	-4.2	5.1	4.4
SMILES	rRNA inh HTS	rRNA inh HTS OD600	rRNA inh HTS RFP	MLL AF4-AF9 inh
CC1(C(=O)O)CCCN(C(=O)c2ccc(OC(F)F)cc2)C1 (configuration not stated)	12.1	17.1	2.4	-0.2
CNC[C@H]1Oc2c(NC(=O)Nc3ccc4c(c3)OCO4)cccc2C(=O)N([C@@H](C)CO)C[C@H]1C	5.7	-2.3	-0.5	9.6
Cc1ccccc1S(=O)(=O)N1CC(=O)N2[C@H](C1)[C@@H](c1ccc(C#CCC3CCCC3)cc1)[C@@H]2CO	5.1	1.6	3.0	1.2
Cc1ccc(S(=O)(=O)Nc2ccc3c(c2)CC(=O)N([C@H](C)CO)C[C@@H](C)[C@@H](CN(C)S(=O)(=O)c2cn(C)cn2)O3)cc1	2.7	3.7	-2.8	0.7
O=C(NCC1CCCCC1)[C@H]1N[C@H]2c3ccc(C4=CCCC4)c(=O)n3C[C@H]2[C@@H]1CO	-7.0	-19.0	2.4	-2.0
C[C@@H]1CN([C@@H](C)CO)C(=O)c2cccc(NS(=O)(=O)c3ccc(Cl)cc3)c2O[C@@H]1CN(C)Cc1ccc(C(=O)Nc2ccccc2N)cc1	0.5	-9.4	2.8	2.1
CC1=C(C(=O)N(C(C)C)C(C)C)CC(CC(=O)NCCN2CCOCC2)C(=O)N1Cc1ccc(F)cc1 (configuration not stated)	12.2	12.8	1.1	0.8
CCCCN(C=O)c1c(CC)nc2ccc(C(=O)NCCc3ccccn3)cn12	-0.1	4.5	-1.5	-1.2
COc1ccccc1CN1C[C@@H]2N[C@H](C1)C2c1ccc(-c2ccccc2OC)cc1 (some centres not stated)	-59.7&-60.7	-80.7&-78.9	-16.9&-16.1	14.0&17.6
CCC(=O)N1[C@@H]2c3ccc(C4=CCCC4)c(=O)n3C[C@@H]2[C@@H](CO)[C@@H]1C(=O)NCc1ccccc1	0.8	-0.4	-2.0	1.4
CO[C@@H](C(=O)N(C)C[C@H]1OCc2ccccc2-c2c(n(C)c3ccccc23)C(=O)N([C@H](C)CO)C[C@@H]1C)c1ccccc1	1.2	-2.4	-0.3	0.6
CCCC(=O)Nc1ccc2c(c1)C(=O)N(C)[C@@H]1CC[C@H](CC(=O)NCCN3CCCCC3)O[C@H]1CO2	1.1	2.8	-1.9	-2.7
CNC(=O)C[C@H]1CC[C@@H]2[C@@H](COc3ccc(NC(=O)c4cccc(OC)c4)cc3C(=O)N2C)O1	-2.8	-1.7	-0.9	-7.0
CO[C@@H]1CN(C)C(=O)c2ccc(NC(C)=O)cc2OC[C@H](C)N(C(=O)Cc2cccnc2)C[C@H]1C	4.2	-0.3	-1.9	1.3
O=C(C[C@H]1CC[C@@H]2[C@H](COC[C@H](O)CN2C(=O)c2cccnc2)O1)NCc1ccccc1	2.3	5.3	1.6	-1.1
COCC(=O)Nc1ccc2c(c1)OC[C@H](C)N(C(=O)COC)C[C@H](C)[C@H](OC)CN(C)C2=O	0.5	-2.0	-0.5	-2.9
C[C@@H]1CN([C@@H](C)CO)C(=O)Cc2cc(NC(=O)Cc3cn(C)c4ccccc34)ccc2O[C@H]1CN(C)C(=O)Nc1ccc(F)cc1	0.8	4.2	-3.0	-2.3
COc1ccc2c3c([nH]c2c1)[C@@H](CO)N(C(=O)NC(C)C)CC31CCN(C(=O)C2CCCC2)CC1	-3.3	-5.3	0.7	-2.5
CC=Cc1ccc2n(c1=O)C[C@@H]1[C@@H](CO)[C@H](C(=O)N[C@@H](C)c3ccccc3)N(C)[C@H]21 (mixture of isomers)	3.1	5.3	3.9	-0.1
COC(=O)C[C@@H]1CC[C@@H]2[C@@H](COc3ccc(NC(=O)C4CCOCC4)cc3C(=O)N2C)O1	-1.3	-1.7	0.1	-2.8
CO[C@@H]1CN(C)C(=O)c2cc(NS(C)(=O)=O)ccc2OC[C@H](C)N(CC2CCOCC2)C[C@@H]1C	1.0	1.1	-2.6	0.7
O=C(C[C@@H]1C[C@@H]2c3cc(NC(=O)Nc4ccccc4F)ccc3O[C@@H]2[C@@H](CO)O1)NCc1cc(F)ccc1F	-4.8	-4.6	0.6	-5.0
O=C(C(=O)N1CCC(c2ccccc2)CC1)c1ccccc1	-31.4	-26.9	-3.2	1.1
COc1ccc(CN(C)C[C@H]2Oc3ccc(NC(=O)NC4CCCCC4)cc3C(=O)N([C@H](C)CO)C[C@H]2C)cc1	2.2	-1.7	0.9	3.3
COc1ccc(COC(=O)CCc2cc(OC)c(OC)c(OC)c2)cc1F	5.5	5.2	-0.3	?

A draw from above in order of formula weight, smallest number first.
SMILES	rRNA inh HTS	rRNA inh HTS OD600	rRNA inh HTS RFP	MLL AF4-AF9 inh
CNC[C@H]1Oc2c(NC(=O)Nc3ccc4c(c3)OCO4)cccc2C(=O)N([C@@H](C)CO)C[C@H]1C	5.7	-2.3	-0.5	9.6
CC1=C(C(=O)N(C(C)C)C(C)C)CC(CC(=O)NCCN2CCOCC2)C(=O)N1Cc1ccc(F)cc1 (configuration not stated)	12.2	12.8	1.1	0.8
O=C(C[C@@H]1C[C@@H]2c3cc(NC(=O)Nc4ccccc4F)ccc3O[C@@H]2[C@@H](CO)O1)NCc1cc(F)ccc1F	-4.8	-4.6	0.6	-5.0

The list continues.
SMILES	rRNA inh HTS	rRNA inh HTS OD600	rRNA inh HTS RFP	MLL AF4-AF9 inh
COc1ccc(C(C(=O)NCc2ccccc2)n2c(=O)c(-c3ccccc3)nc3ccccc32)cc1 (configuration not stated)	5.5	10.4	1.5	5.9
COc1ccc(-c2cc(NC=O)c3ncc(-c4cc(OC)c(OC)c(OC)c4)n3c2)c(OC)c1	5.3	1.2	4.0	-0.2
O=C(CN1CCOCC1)N1CC(=O)N2[C@@H](CO)[C@H](c3ccc(-c4cccc(F)c4)cc3)[C@@H]2C1	-2.1	-6.3	2.4	-0.9
C[C@@H]1CN([C@@H](C)CO)C(=O)c2cc(NC(=O)Cc3cn(C)c4ccccc34)ccc2O[C@H]1CN(C)Cc1ccc(C(F)(F)F)cc1	1.2	-1.0	-0.3	2.4
COCc1cn(CC[C@@H]2CC[C@@H](NC(=O)c3ccccc3)[C@@H](CO)O2)nn1	4.2	-0.7	-0.8	0.0
COc1ccc(S(=O)(=O)N(C)C[C@@H]2OCc3ccccc3-c3c(n(C)c4ccccc34)C(=O)N([C@H](C)CO)C[C@H]2C)cc1	0.0	6.4	-1.9	5.4
CC(C)C#Cc1cnc2c(c1)C(=O)N([C@H](C)CO)C[C@H](C)[C@@H](CN(C)C(=O)Cc1ccncc1)O2	5.5	4.5	-5.1	-1.1
COc1ccc(S(=O)(=O)N(C)C[C@H]2Oc3ccc(NS(=O)(=O)c4cccs4)cc3C(=O)N([C@@H](C)CO)C[C@H]2C)cc1	-2.8	-7.8	0.4	0.2
CN1[C@@H]2c3ccc(/C=C/c4ccccc4)c(=O)n3C[C@@H]2[C@@H](CO)[C@@H]1C(=O)Nc1nccs1	-8.7	-7.1	0.6	-7.6
Cc1noc(C)c1S(=O)(=O)N(C)C[C@@H]1OCCCC[C@H](C)Oc2ccc(NS(C)(=O)=O)cc2C(=O)N([C@@H](C)CO)C[C@H]1C	-1.0	-0.8	0.3	-12.2
CC(C)(C)c1ccc(CC(=O)N2CCC2(C)C(=O)Nc2cccc3ccccc23)cc1 (configuration not stated)	-1.3	2.7	-1.7	0.1
O=C(Nc1ccc(F)cc1)N1CCCCN2[C@@H](CO)[C@@H](c3ccc(C#Cc4ccccc4)cc3)[C@@H]2C1	-55.0	-77.0	-8.7	6.2
CCC(=O)Nc1ccc2c(c1)OC[C@@H](C)N(C(=O)C1CC1)C[C@@H](C)[C@@H](OC)CN(C)C2=O	1.7	0.9	-0.3	-2.2
C[C@@H]1CCCCO[C@@H](CN(C)S(C)(=O)=O)[C@@H](C)CN([C@H](C)CO)C(=O)c2cc(NC(=O)Nc3ccc(C(F)(F)F)cc3)ccc2O1	1.9	1.8	-2.3	3.6
C[C@@H]1CCCCO[C@@H](CN(C)Cc2ccc(C(=O)O)cc2)[C@@H](C)CN([C@H](C)CO)C(=O)c2cc(NC(=O)C3CCCCC3)ccc2O1	3.0	6.9	-0.2	1.4
C[C@H]1CN([C@@H](C)CO)C(=O)c2cccc(NC(=O)Nc3ccc(F)cc3)c2O[C@@H]1CN(C)S(=O)(=O)c1ccccc1	-2.6	-4.4	0.2	0.5

Profiles, looked up by structure. Order of values: rRNA inh HTS	rRNA inh HTS OD600	rRNA inh HTS RFP	MLL AF4-AF9 inh
Cc1noc(C)c1S(=O)(=O)N(C)C[C@@H]1OCCCC[C@H](C)Oc2ccc(NS(C)(=O)=O)cc2C(=O)N([C@@H](C)CO)C[C@H]1C is listed with -1.0	-0.8	0.3	-12.2
COCc1cn(CC[C@@H]2CC[C@@H](NC(=O)c3ccccc3)[C@@H](CO)O2)nn1 is listed with 4.2	-0.7	-0.8	0.0
COc1ccc(S(=O)(=O)N(C)C[C@H]2Oc3ccc(NS(=O)(=O)c4cccs4)cc3C(=O)N([C@@H](C)CO)C[C@H]2C)cc1 is listed with -2.8	-7.8	0.4	0.2

Only part of the results is shown; the hit share may differ from the screen's.
